Bioassay records deposited in PubChem BioAssay by National Center for Advancing Translational Sciences (NCATS).
A647 fluor: compound fluoresces in the A647 spectral region | max dye-equivalent concentration, M | AID 592 | Compound fluorescence, A647 channel (570/671 nm), Tris buffer | 59,000 tested, under 10 active; active means above 1 µM dye equivalent; inconclusive means 0.1 to 1 µM; inactive means 0.1 µM or less;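 note: values scaled relative to a standard on each plate; highest value over a series up to 38 µM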
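Compounds pinned into 100 mM Tris pH 8.0, 15 min at room temperature, then read with 570 nm excitation/671 nm emission filters. Fluorescence normalized to an on-plate six-point Alexa 647 standard curve, giving dye-equivalent concentration per compound concentration.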
A488 fluor: compound autofluorescence in A488 spectral region; compound autofluorescence, A488 spectral region, dye equivalency; stronger effect = higher value; max dye equivalency, M; 59,000 tested, 0.1% active; active = above 10 nM dye equivalent; inconclusive = 1 to 10 nM; inactive = 1 nM or less; about half of its hits are not listed in these tables;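 note: highest value over a series up to 38 µM; compound alone in buffer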
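Read-out: relative fluorescence at 480/540 nm, expressed as Alexa 488 dye-equivalent concentration from a six-point A488 standard included per plate. Conditions: 100 mM Tris, pH 8.0; 15 min incubation, room temperature.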
Resorufin fluor: compounds fluorescent in resorufin spectral region; 59,000 tested, 0.04% active; Compound fluorescence, resorufin region 547/598 nm, buffer; stronger effect = higher value; max dye-equivalent concentration, M; active = above 10 nM dye equivalent; inconclusive = 1 to 10 nM; inactive = 1 nM or less; a few of its hits are not listed in these tables; note: highest value over a series up to 38 µM
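Dye-equivalent concentration values derive from comparing each well's 547/598 nm fluorescence against resorufin standards included on every plate. Incubation was 15 min at room temperature in 100 mM Tris, pH 8.0.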
TSHR agonist: agonists of human thyroid stimulating hormone receptor | Potency, µM (top dose mostly 57.1 µM), for inactives: top-dose activation, hits mostly activators | 73,000 tested, 0.48% active | HEK293-CNG-TSHR cells (CNG channel as cAMP sensor), membrane potential dye, cAMP | P16473; active = well fitted activation curve of enough size with the parental cells flat; inconclusive = any curve in the parental cells; inactive = parental cells flat and receptor cells flat or falling; note: potency is the fitted concentration of half-maximal effect; % of control where 0% means no effect; weak receptor curves with flat parental cells got no call and are not listed
Target sequence (P16473 whole entry, looked up): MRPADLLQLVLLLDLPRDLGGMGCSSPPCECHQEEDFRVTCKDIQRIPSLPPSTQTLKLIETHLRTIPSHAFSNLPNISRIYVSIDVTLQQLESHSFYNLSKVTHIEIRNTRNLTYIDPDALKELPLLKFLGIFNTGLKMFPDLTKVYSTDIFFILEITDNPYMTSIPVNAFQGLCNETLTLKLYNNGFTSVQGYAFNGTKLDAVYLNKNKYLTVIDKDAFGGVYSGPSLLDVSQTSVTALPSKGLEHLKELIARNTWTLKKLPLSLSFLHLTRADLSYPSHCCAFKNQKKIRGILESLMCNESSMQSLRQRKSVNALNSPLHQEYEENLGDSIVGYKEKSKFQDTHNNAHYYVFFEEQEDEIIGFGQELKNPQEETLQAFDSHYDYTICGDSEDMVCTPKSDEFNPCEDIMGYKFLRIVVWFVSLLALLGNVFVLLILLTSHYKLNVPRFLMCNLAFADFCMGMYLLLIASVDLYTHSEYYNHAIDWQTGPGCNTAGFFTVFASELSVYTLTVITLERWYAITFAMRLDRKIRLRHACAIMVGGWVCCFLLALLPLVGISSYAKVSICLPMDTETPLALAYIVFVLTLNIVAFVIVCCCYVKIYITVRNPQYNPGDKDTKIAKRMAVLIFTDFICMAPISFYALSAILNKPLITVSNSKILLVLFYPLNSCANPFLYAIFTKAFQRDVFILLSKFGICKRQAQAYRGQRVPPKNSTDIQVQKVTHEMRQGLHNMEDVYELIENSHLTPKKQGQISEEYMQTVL
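cAMP rise detected as CNG-channel membrane depolarization by fluorescent dye (emission 590 nm), 30 min after compound, following 60 min dye loading containing 100 uM RO 20-1724 at room temperature. Cells: TSHR/CNG HEK 293, with parental CNG HEK 293 as control.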
AID923: qHTS Assay for Allosteric/Competitive Inhibitors of Caspase-1: Spectroscopic Profiling in AFC Spectral Region; compound fluorescence, AFC spectral region (405/520 nm); almost no hit is shown here; Potency, µM (titrated, usually from 57.5 µM), without a hit: top-dose fluorescence increase, most hits filed as activators; 75,000 tested, 1.1% active; active = well fitted activation curve with a large enough effect; inconclusive = small, poorly fitted or top-dose-only effect;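 note: potency is the fitted concentration of half-maximal effect; 0% is about no effect; scaled to a free AFC standard on each plate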
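Baseline compound fluorescence (AFC region, 405 nm ex/520 nm em) taken from the intercept of kinetic reads with 50 nM caspase-1 and 5 uM Ac-WEHD-AFC; normalized to an on-plate AFC standard curve; compounds titrated up to 57 uM.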
* marks the source's active call; other numbers are inactive results; i = inactive; u = inconclusive; x = no result given; [ ] = another dose, or the depositor's remark. Not all compounds are listed, so the mix of outcomes need not match the whole.

structure,A647 fluor,A488 fluor,Resorufin fluor,TSHR agonist,AID923
O=C(Nc1ccc(Cl)cn1)c1cnn2cccnc12,1e-09,i,i,-6.9%,-0.3%
CSc1nc2ccc3nc(NC(=O)c4cccs4)sc3c2s1,1.93e-08,i,i,-4.7%[11.4 µM],1.1%
O=C(CCn1ccc2ccccc21)Nc1ccc(N2CCOCC2)cc1,4.18e-08,i,i,-7.2%,0.7%
COc1cccc(-n2c(Cc3cc(=O)[nH]c(=O)[nH]3)nnc2SC(C)C)c1,x,x,x,7.4%,0.8%
CC(NC(=O)C1CCC1)c1ccc(Cl)cc1 (configuration not stated),3.91e-08,i,i,1.3%,1.6%
O=C(CN1C(=O)CCSc2ccccc21)Nc1ccc2c(c1)OCCO2,x,x,x,4.9%,3.4%
CCOc1ccc(N/C(SC)=C(/C#N)C(N)=O)cc1,1.26e-08,i,i,-32.0%[inhibitor],4.6%
CC(=O)Nc1nc2ccccc2n1CCN(C)C,x,x,x,-2.5%,3.2%
C[C@]1(C(=O)NCCCNc2ncc(C(F)(F)F)cc2Cl)C=C[C@@H](Cc2ccccc2)N1C(=O)c1ccccc1,x,x,x,9.8%,-0.4%
O=C(O)CCC(=O)Nc1ccc(Br)cn1,3.75e-08,i,i,u,1.2%
Nc1nnc(CSc2ccc(Cl)cc2)s1,2e-09,i,i,x,x
COC(=O)c1ccc(COc2ccc3c(C)c(C)c(=O)oc3c2C)o1,x,x,x,5.0%[11.4 µM],-0.7%
CCOC(=O)C1CCN(c2c(NC3CCCc4ccccc43)c(=O)c2=O)CC1 (configuration not stated),x,x,x,9.5%,-0.7%
O=C(CCc1ccc(S(=O)(=O)N2CCOCC2)cc1)Oc1ccccc1,2.73e-08,i,i,-2.3%,1.2%
CC1CCN(CCCNC(=O)Cc2c(C(=O)O)n(C)c3ccccc23)CC1,1e-09,i,i,1.0%,1.1%
COc1cc(OC)c(C2C(C(=O)N3CCOCC3)=C(C)NC3=C2C(=O)CC(C)(C)C3)cc1OC (configuration not stated),4.18e-08,i,i,0.1%,-1.4%
CC1(C)OC(C(O)(c2ccccc2)c2ccccc2)C(C(O)(c2ccccc2)c2ccccc2)O1 (configuration not stated),x,x,x,15.4%[11.4 µM],6.6%[11.5 µM]
COc1ccc(-n2nc(C(=O)N3CCN(c4ccc(F)cc4)CC3)c3ccccc3c2=O)c(OC)c1,6.6e-09,i,i,-2.2%[11.4 µM],-0.8%
CCCC1(C(=O)OC)C=C2C(=C(C(C)C)C(=O)C2C)CN1 (configuration not stated),x,x,x,u,6.3%
COC(=O)c1ccc(NC(=O)c2ccccc2NS(C)(=O)=O)cc1,1.93e-08,i,i,-4.3%,-2.2%
C[C@H](NC(=O)Nc1ccc2c(c1)OCCO2)C(=O)O,2.57e-08,i,i,x,0.5%
COc1ccc2c(c1)c(CC(=O)O)c(C)n2C(=O)c1ccccc1,5.73e-08,i,i,u,-2.1%
Cc1ccc2c(CC(=O)OCc3nc(N)nc(Nc4ccccc4C)n3)coc2c1,6.6e-09,i,i,u,1.7%
COCCn1c(CCC(=O)O)nc2c1c(=O)[nH]c(=O)n2CC(C)C,8.3e-09,i,i,0.7%,-0.3%
CCSc1sccc1C1C(C#N)=C(N)N(c2cccnc2)C2=C1C(=O)CCC2 (configuration not stated),4.5e-08,i,i,-1.2%,9.8%
COc1nc(N)nc(CC(=O)C2CC2)n1,2.7e-09,i,i,-2.4%[11.4 µM],-0.8%
CCOC(=O)CCc1c(C)c(C#N)c2nc3ccccc3n2c1-n1ccnc1C,8.13e-08,i,i,x,x
CC(C1CC1)N(C(=O)NC1CCS(=O)(=O)C1)c1ccccc1 (configuration not stated),4.99e-08,i,i,19.2%,0.0%
Nn1c(SCC(=O)N2CCOCC2)nnc1-c1ccc(Cl)cc1Cl,1.4e-09,i,i,8.0%,-3.5%
CN(CC(=O)NC1CCCc2ccccc21)S(=O)(=O)c1ccc2c(c1)c(=O)n(C)c(=O)n2C (configuration not stated),x,x,x,u,1.4%
CCN1CCN(Cc2ccc(NC(=O)CC3Oc4ccc(C)cc4NC3=O)cc2)CC1 (configuration not stated),x,x,x,-4.2%,2.0%
COC(=O)C/C=C\[C@@H](C)[C@@H](/C=N\O[C@@H](C)CN1CCCc2nc(C)c(C)cc21)NS(=O)(=O)c1ccc(C)cc1,x,x,x,0.2%[11.4 µM],10.1%[11.5 µM]
CCOc1ccc(S(=O)(=O)NCCC(=O)NC2=NCCS2)cc1,1.59e-08,i,i,11.6%,-0.8%
O=C(O)Cn1cc(C(=O)c2cccs2)c2ccccc21,7.7e-09,i,i,x,1.4%
NC(=O)C1CCN(C(=S)c2cccs2)CC1,2.6e-09,i,i,-9.6%,0.6%
CCOC(=O)Cc1nnc(NC(=O)C(CC)Sc2nnc3c4ccccc4n(C)c3n2)s1 (configuration not stated),2.8e-09,i,i,9.5%,1.7%
O=C1C2CC=CCC2C(=O)N1CC(=O)N(Cc1ccccc1)C1CCS(=O)(=O)C1 (configuration not stated),1.83e-08,i,i,12.4%,-0.9%
CC(C)C(=O)Nc1ccc(NC(=O)c2ccccc2Cl)nc1,5.8e-09,i,i,-1.0%,1.5%
COC(=O)CCCC(=O)Nc1c(F)c(F)c(F)c(F)c1F,x,x,x,9.5%,7.9%
O=C(Cn1cnc2c(cnn2-c2ccccc2)c1=O)N1CCCc2ccccc21,3.55e-08,i,i,x,3.1%
CC(=O)NCCNc1ncncc1-c1ccccc1CN(C)C,1e-09,i,i,26.4%,1.1%
COc1ccc(NCc2n[nH]nc2-c2ccccc2)cc1Cl,1.4e-09,i,i,-19.2%,-2.2%
O=CN(CCN(C=O)CN1CCCCC1)CN1CCCCC1,x,x,x,-1.6%,3.2%
Cc1cc(C(=O)COc2cccc(-n3cnnn3)c2)c(C)n1-c1ccccc1,9.2e-09,i,i,u,1.6%
COc1cc(C2c3c(oc4ccccc4c3=O)C(=O)N2Cc2ccncc2)ccc1O (configuration not stated),1e-09,i,i,-0.6%,1.2%
CCCOC(=O)CSc1nnc(-c2ccc(Cl)cc2Cl)o1,1e-09,i,i,-1.3%,-0.5%
Cc1cc(C(=O)N2CCN(c3ncccn3)CC2)c2cc(F)ccc2n1,1e-09,i,i,3.1%,2.2%
CC1=C(C(=O)NC(C)C)C2(CCC(C)CC2)OC1=O (configuration not stated),x,x,x,-12.1%,0.0%
COC(=O)c1c(F)c(F)c(N2CCOCC2)c(F)c1F,x,x,x,5.9%,0.9%
CC1(C)CC(=O)C2=C(C1)NC(=O)CC2c1cc2c(cc1Br)OCO2 (configuration not stated),4.71e-08,i,i,15.8%,-1.2%

Whole records from above. Order of screens: A647 fluor	A488 fluor	Resorufin fluor	TSHR agonist	AID923
Record of CC(C)C(=O)Nc1ccc(NC(=O)c2ccccc2Cl)nc1 = 5.8e-09	i	i	-1.0%	1.5%
Record of COc1cc(OC)c(C2C(C(=O)N3CCOCC3)=C(C)NC3=C2C(=O)CC(C)(C)C3)cc1OC (configuration not stated) = 4.18e-08	i	i	0.1%	-1.4%

The listing continues.
structure,A647 fluor,A488 fluor,Resorufin fluor,TSHR agonist,AID923
O=C(CSc1ccc2nnc(-c3cccnc3)n2n1)NCC1CCCO1 (configuration not stated),x,x,x,-8.0%,-4.9%
COc1cc(OC)cc(C(=O)Nc2ccccc2NC(C)=O)c1,x,x,x,5.3%,0.0%
COC(=O)c1ccc(COc2ccc(C3C4=C(CCCC4=O)Nc4onc(C)c43)cc2)cc1 (configuration not stated),2.9e-09,i,i,-1.7%,1.6%
C=CCc1ccc(OC)c(OC)c1,x,x,x,-6.6%,-1.2%
CCN(CC(=O)NCc1ccccn1)S(=O)(=O)c1ccc(Cl)cc1,1.93e-08,i,i,0.0%,1.7%
O=C(Oc1oc(-c2ccco2)nc1C=Nc1ccccc1)c1ccco1,1e-09,i,i,x,x
O=C(NCC1CCCO1)C1CCCN(c2ncccn2)C1 (configuration not stated),1e-09,i,i,1.0%,-0.5%
CC1CCCCC1NC(=O)CSc1nnc(N)s1 (configuration not stated),1.5e-09,i,i,-2.4%,5.3%
O=C(Nc1ccc(F)cc1)N(Cc1nnc2n1CCCCC2)c1ccccc1,1.52e-08,i,i,0.7%,-1.1%
CC1CCCC(NC(=O)CSc2nnc(N)s2)C1C (configuration not stated),1e-09,i,i,-2.0%,0.2%
Clc1cccc(-c2nn3c(COc4ccccc4)nnc3s2)c1,3.08e-08,i,i,x,x
CC(=O)Nc1ccc(C2Nc3ccccc3C(=O)N2C2CCCCC2)cc1 (configuration not stated),x,x,x,0.9%,3.0%
O=C(c1ccco1)n1c(=S)nc2ccccn21,1.45e-08,i,i,-8.3%,-2.3%
Cc1ccc2c(c1)nnn2C1CCN(S(=O)(=O)c2ccc(C(=O)N(C)C3CCCCC3)cc2)CC1,4.6e-09,i,i,26.3%,-0.5%
COC(=O)[C@@]1(Cc2ccccc2)[C@H]2c3cc(C(=O)N4CCCC4)n(CC4CC4)c3C[C@H]2CN1C(=O)c1ccccc1,x,x,x,u,-0.4%
Cc1ccc(Cn2ccc(NC(=O)c3nc4ncccn4n3)n2)cc1,1.93e-08,i,i,5.7%,0.1%
CCOc1ncccc1C(=O)Nc1ccc2c(C)cc(=O)oc2c1,2.83e-08,i,i,u,0.0%
c1ccc(-c2nnc(CSc3nnc(-c4cccs4)o3)o2)cc1,4.03e-08,i,i,11.8%,-1.1%
O=C(NCc1cccnc1)c1ccc(CS(=O)(=O)Cc2ccc(Cl)cc2)o1,1e-09,i,i,-9.7%,0.3%
CSc1ccc(S(=O)(=O)Nc2ccc(N3CCOCC3)c(Cl)c2)cc1,1.77e-08,i,i,9.3%,-2.2%
Cc1cccnc1NC(=O)COc1ccc2oc3c(c2c1)CCCC3,3.38e-08,i,i,u,1.4%
CCCCCCCCCCCCCCCCCCNC(=O)OC[C@@H](COP(=O)([O-])OCC[n+]1ccsc1)OC,4.24e-08,i,i,u,0.0%
CCn1c(C(=O)N2CCC(C(=O)NCCCSC3CCCCC3)CC2)cc2sccc21,x,x,x,u,1.0%
O=C(Cn1cc2c(n1)CCCC2)NC1CCCCCC1,x,x,x,u,-2.9%
Cc1c(NC(=O)CN2CCN(C(c3ccccc3)c3ccccc3)CC2)c(=O)n(-c2ccccc2)n1C,5.6e-09,i,i,1.4%,3.0%
CCOc1ccc(N(C)S(=O)(=O)c2ccc3[nH]cc(C(=O)NCC4CCCO4)c(=O)c3c2)cc1 (configuration not stated),7.7e-09,i,i,u,-2.5%
COc1cc(NC(=O)CN(C)S(=O)(=O)c2ccc(C)cc2)cc(OC)c1,1.97e-08,i,i,13.0%,-1.4%
Cc1cc(C)c(C2C(C#N)=C(N)Oc3n[nH]c(C)c32)cc1CN1CCCC1 (configuration not stated),6.9e-09,i,i,-0.9%,-0.4%
CC1(C)C/C(=N\O)c2cc3c(nc2C1)CCCC3,x,x,x,-1.0%[11.4 µM],0.1%
Cc1cc(C)c(NC(=O)CCCN2CCOCC2)c(C)c1,8.4e-09,i,i,-0.8%,-3.8%
COc1cc(C2C(C(=O)c3ccc(C)o3)=C(O)C(=O)N2c2cc(C)on2)cc(OC)c1OC (configuration not stated),1e-09,i,i,x,x
COc1ccc2[nH]c(=O)c(CN(C(=O)c3ccccn3)C3CCCCC3)cc2c1,1e-09,i,i,-3.5%,0.0%
CCOC(=O)c1sc(NC(=O)c2ccc(Br)o2)cc1C,2.93e-08,i,i,3.9%[11.4 µM],0.3%
